Screens as filed in PubChem.
Bfl-1 A1 inh – inhibitors of the anti-apoptotic protein A1, read as caspase activation | MEF A1-2A-BIM cells, Caspase-Glo 3/7 luminescence, 3 h; percent of clofoctol response, vehicle zero | caspase activation, % (test concentration not listed) | 330,000 compounds, 0.066% hits | AID 2462;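 active = over half of replicate activation scores above 10%, or exactly half above 10 with the replicate mean above 10; inconclusive = replicate mean below 10 yet half the replicates above 10; inactive = over half of replicates below 10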;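 also: wells of about 30 µL received 50 nL stock; many hits fall short of the cut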
Calb FLC – C. albicans growth modulation with fluconazole. 300,000 compounds, 0.57% hits. growth inhibition, % (no concentration beside the values). C. albicans CaCi-2 (fluconazole-resistant clinical isolate) + fluconazole, Alamar Blue growth, 48 h;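 active = most replicates above 75%; inconclusive = exactly half above 75%; inactive = most below 75%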;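 also: all wells also contain fluconazole at 8 µg/ml as a sub-toxic cotreatment; 0% = median of DMSO wells and 100% = median of geldanamycin control wells; wells of about 8 µL received 7.5 nL stock; the first replicate is given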
Beta apoptosis – blocks beta cell apoptosis | 300,000 compounds, 0.8% hits | INS-1E cytokine-induced death, ATP luminescence, 48 h; percent of positive-control rescue, neutral wells zero | AID 435005 | protection from apoptosis, % (no concentration beside the values);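 active = all replicates at 75% or more, or half of them and the mean; inconclusive = half reach 75% but not the mean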;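 also: 0% = cytokine-treated negative control wells and 100% = positive control rescue; higher means more ATP so stronger rescue from cytokine killing; wells of about 40 µL received 100 nL stock; the first replicate is given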
Ecoli rRNA inh – inhibitors of bacterial rRNA selective over humanized ribosomes; E. coli WT GFP vs humanized-ribosome RFP mutants, fluorescence, 24 h; hits give low values; DMSO median 0, no signal -100; GFP signal change (wild-type ribosome), % (test concentration not listed); 350,000 compounds, 1.6% hits;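 active = significant combined selectivity score with lowered wild-type GFP, culture density cut under 30%, mutant RFP and density less affected; inactive = any of these conditions unmet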; also: one replicate is shown; some compounds called inactive have numbers as strong as hits
Vif TR-FRET – inhibitors of Vif binding to APOBEC3G peptide, primary screen, biochemical, TR-FRET, GST-Vif 1-94, biotin-A3G peptide, dose response retest (AID 1117319) | inhibition, %; hits with a dose series show IC50 in µM | TR-FRET GST-Vif / biotin-A3G peptide binding; higher % means a stronger effect; test concentration not given here; strong numbers were not always called active | 260,000 compounds, 0.57% hits;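 active = above the screen mean plus three standard deviations and confirmed in dose response; inconclusive = results disagree or hit not tested in dose response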;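 also: Vif residues 1-94 fused to GST binding biotinylated APOBEC3G peptide 110-148; 0% = full assay without inhibitor and 100% = GST in place of GST-Vif; retest series ran down from 100 µM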
MLL AF4-AF9 inh – inhibitors of human MLL-AF4/AF9 interaction | inhibition, % at 10 µM | AID 651704 | 350,000 compounds, 0.47% hits | AlphaScreen, biotin-AF4 peptide binding to FLAG-AF9 | P42568;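 active = every replicate reaching a set inhibition limit, whatever the replicate mean, cut at about 25% in these data; inconclusive = mean inhibition reaches that limit but some replicates miss it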;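 also: 0% = plate neutral control median and 100% = total signal loss; the record names both 10 and 1 µM as test concentration; the first replicate is given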
Target sequence (P42568 whole entry, looked up): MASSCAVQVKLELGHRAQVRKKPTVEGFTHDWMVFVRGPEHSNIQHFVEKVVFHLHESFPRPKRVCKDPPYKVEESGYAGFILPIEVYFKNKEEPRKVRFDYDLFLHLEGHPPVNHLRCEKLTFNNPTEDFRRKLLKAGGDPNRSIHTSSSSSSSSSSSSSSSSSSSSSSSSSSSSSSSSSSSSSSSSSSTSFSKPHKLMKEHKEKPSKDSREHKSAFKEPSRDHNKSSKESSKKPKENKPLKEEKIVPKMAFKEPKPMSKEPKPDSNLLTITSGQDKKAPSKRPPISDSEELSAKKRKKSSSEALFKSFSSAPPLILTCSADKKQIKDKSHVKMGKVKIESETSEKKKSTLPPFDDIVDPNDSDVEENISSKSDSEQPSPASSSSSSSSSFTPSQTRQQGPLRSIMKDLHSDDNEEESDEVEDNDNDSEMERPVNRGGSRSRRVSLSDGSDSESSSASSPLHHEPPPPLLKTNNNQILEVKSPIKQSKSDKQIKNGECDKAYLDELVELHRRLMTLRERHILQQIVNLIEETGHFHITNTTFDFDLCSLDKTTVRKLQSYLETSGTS
T cruzi repl – blocks replication of Trypanosoma cruzi. T. cruzi beta-gal in NIH3T3, luminescence, 90 h. inhibition, % (no concentration beside the values). 300,000 compounds, 1.4% hits. AID 1885;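 active = mean inhibition across valid replicates above about 55%, limit read from the data; inconclusive = mean below that limit but half or more replicates reach it; inactive = mean below it, under half of replicates reach it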;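 also: signal also drops with host cell toxicity which is not excluded here; 0% = plate median of DMSO wells and 100% = zero luminescence signal; higher percent means less beta-gal luminescence so fewer parasites; stock transfer was 50 nL into about 50 µL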
RanGTP-Impb inh – inhibitors of RanGTP-importin-beta interaction, primary screen, biochemical, FRET, CFP-Ran, YFP-importin-beta, homogeneous | 300,000 compounds, 1.1% hits | inhibition, % (concentration not given with the values) | AID 2216 | cell-free CFP-Ran/YFP-importin-beta FRET ratio;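 active = most replicates above 15%; inconclusive = exactly half above 15%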;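 also: 0% = DMSO wells and 100% = Ran loaded with GDP instead of GTP; wells of about 40 µL received 100 nL stock; the first replicate is given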
Ecoli rRNA inh OD600 – second read-out of Ecoli rRNA inh, no call of its own (marks repeat the call); OD600 change, %; measured here: OD600 growth;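 optical density of the mix in the first replicate; 0 = DMSO median and -100 = no signal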
Ecoli rRNA inh RFP – further read-out of Ecoli rRNA inh, marked with its call; RFP signal change, %; measured here: RFP humanized mutant strains;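 first replicate; 0 = DMSO median and -100 = no signal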
Active calls of the source: *; ? = inconclusive; / = no result given; & = joins results of further samples. Only part of the results is shown; rates above refer to the full screens.

SMILES	Bfl-1 A1 inh	Calb FLC	Beta apoptosis	Ecoli rRNA inh	Ecoli rRNA inh OD600	Ecoli rRNA inh RFP	Vif TR-FRET	MLL AF4-AF9 inh	T cruzi repl	RanGTP-Impb inh
N#C/C(=C\c1ccc(OC(=O)c2ccc(Cl)s2)cc1)c1nc2ccccc2[nH]1	-6.3	2.3	-4.3	/	/	/	5.0%	/	-18.9	2.3
O=C(CN(Cc1ccco1)C(=O)CNS(=O)(=O)c1ccc(F)cc1)NCCc1ccccc1	-0.3	3.3	4.1	/	/	/	4.1%&-11.7%	/	/	/
Cc1ccc(-n2c(C)nnc2SCC(=O)NC2CCCC2)cc1	0.1	/	5.6	1.2	5.9	5.2	/	-3.2	1.2	/
COc1ccc(CN2CCNC(=O)C2CC(=O)NC2CCCCCC2)c(F)c1 (centres undefined)	2.2	-1.6	-13.1	2.2	-9.5	1.3	/	-0.4	13.6	3.8
Cc1ccccc1NC(=O)CCNS(=O)(=O)c1ccc2[nH]c(=O)oc2c1	0.5	4.7	-7.5	-0.6	10.4	-0.4	13.9%	-0.2	-8.5	1.2
CCCOc1ccc(/C(O)=C2/C(=O)C(=O)N(CCOC)C2c2cccnc2)cc1 (centres undefined)	0.2	-0.9	-8.8	/	/	/	1.4%	/	-8.3	0.7
Cc1ccc2c(c1)C1CN(C)CCC1N2C(=S)Nc1ccc(OC(F)F)cc1 (centres undefined)	1.3	-33.8	-9.0	-20.1	-22.9	-2.7	/	5.2	3.8	-4.4
COc1ccc(-c2nc(-c3ccccc3)ncc2S(C)(=O)=O)cc1	0.1	1.8	-2.0	2.1	7.5	-0.5	8.9%	-1.9	10.3	-4.2
COC(=O)c1nc[nH]c1C(=O)OC	0.6	-10.1	-4.1	0.6	5.0	-1.2	0.6%	-3.4	-6.6	2.2
CC1=CC2=NC(=O)/C(=C\c3cccn3CCOc3cccc(C)c3)C(=N)N2O1	-0.8	10.1	4.6	-12.8	-13.3	-8.1	-2.0%	9.3	12.1	-0.1
COc1ccc(C(=O)N/C(=C\c2ccc3c(c2)OCO3)C(=O)Nc2cccc(C(=O)O)c2)cc1	0.3	-3.3	-4.2	6.6	-4.3	-3.9	-6.4%	-3.0	-9.0	-0.8
Cc1nc(NC(=O)CN2CCOCC2)sc1C(=O)N(C)C	0.0	-5.5	-1.0	4.4	7.5	2.2	/	-3.5	-8.7	3.9
O=C(OCC1CCCN2CCCCC12)c1ccc2c(c1)OCO2 (centres undefined)	-0.7	4.1	-9.0	11.4	8.1	-0.9	21.6%	-5.2	12.2	0.6
O=C(CCn1nc(-c2ccccc2)ccc1=O)NCCCN1CCCCCC1	0.5	1.0	-6.8	18.0	-2.0	6.9	-1.1%	13.9	-17.2	-0.2
COc1ccc(CN(C)CC2CCCN(CCc3ccc(F)cc3)C2)cc1OC (centres undefined)	0.9	-5.3	/	12.0	3.4	2.0	/	3.6	50.8	1.4
Cc1nc2ccc3[nH]snc3c2n1	1.0	11.5	2.0	/	/	/	2.7%	/	6.3	/
Cc1[nH]c2ccccc2c1CCNC(=O)CCC(=O)c1ccccc1	-0.5	6.4	-5.6	5.7	6.5	-0.1	-2.0%	-1.7	-6.8	4.0
CC(=O)c1ccc(NC(=S)N2CCCCCC2)cc1	0.5	7.1	-2.2	2.0	-5.2	-4.0	-7.2%	0.4	-0.5	-0.2
Cc1cccc(C(=O)NC(C(=O)Nc2nc(-c3ccccn3)cs2)C(C)C)c1 (centres undefined)	-1.4	22.4	37.9	-34.7*	-21.9*	-1.9*	/	-0.8	82.3*	0.2
Cc1csc(=O)n1CC(=O)OCC(=O)NNC(=O)c1ccccc1	0.0	12.8	-3.9	8.8	11.5	-0.2	/	-2.4	-15.5	-0.3
O=C(CCCCC(=O)Nc1ccccc1Cl)Nc1ccccc1Cl	-0.1	-0.1	-3.0	7.1	7.4	1.3	-0.4%	-1.6	-4.9	1.1
CC(C)(C)N1CC2([N+](=O)[O-])CN(C(C)(C)C)CC([N+](=O)[O-])(C1)C2	1.0	-2.9	21.6	/	/	/	-1.0%	/	-11.8	-1.4
O=C(OCc1ccccc1Cl)C1CC(=O)N(Cc2ccco2)C1 (centres undefined)	0.4	1.5	-0.2	-1.2	-0.5	-1.6	/	1.8	-5.3	-0.6
O=C(COc1ccc(-n2cnnn2)cc1)NCCc1ccc(F)cc1	1.1	3.8	-11.6	/	/	/	0.0%	/	-19.0	3.4
Cc1cccc2c1N(C(=O)c1ccco1)C(C)(C)c1ssc(=S)c1-2	0.1	8.6	-2.9	/	/	/	-6.3%	/	21.1	-2.9
Cc1cc(/C=C(\C#N)C(=O)NCc2ccco2)c(C)n1-c1cccnc1	0.9	-7.5	-11.4	-17.8	-23.0	8.7	3.0%	5.6	4.9	3.4
Cn1c(-c2ccccc2)cnc1SCC(=O)N1CCCc2ccccc21	-0.3	6.8	-4.0	-19.7	-17.4	1.1	/	12.9	11.9	-2.6
O=C(CN(c1ccccc1)S(=O)(=O)c1ccccc1)N1CCOCC1	1.1	0.7	-0.3	23.6	14.3	3.8	13.1%	-2.6	1.1	1.4
Cc1cccc(Cc2nnc(CCC(=O)N(CC3CC3)CC3CCCO3)o2)c1 (centres undefined)	-0.5	-1.6	-1.1	-5.2	-4.2	-3.9	2.4%	-0.2	-2.9	1.6
CC(C)c1ccccc1OCC(=O)N(C)CC(=O)Nc1ccc(F)cc1	-0.1	9.1	-7.0	-8.2	-31.8	-3.0	-1.7%	0.2	-10.6	2.6
COc1ccccc1NC(=O)C(=O)N/N=C/c1ccc([N+](=O)[O-])s1	/	41.6	/	1.5	1.1	0.1	-6.2%	-1.6	61.6*	4.9
CCC1CCC2(CC1)NC(=O)N(CC(=O)Nc1cccc(S(=O)(=O)N(C)c3ccccc3)c1)C2=O (centres undefined)	0.2	/	-9.5	-0.3	-56.9	-4.1	-2.9%	-0.2	/	/
Cc1nnsc1C(=O)Nc1cccc(Cl)c1Cl	0.8	8.1	-3.7	/	/	/	10.7%	/	-15.4	1.1
O=S(Cc1cc(Sc2ccccc2)nc(-c2ccccc2)n1)c1ccccc1 (centres undefined)	0.0	-4.4	1.7	/	/	/	29.0%	/	40.7	5.0
CCn1c(SCc2nc(-c3ccc(OC)c(OC)c3)no2)nnc1-c1cccs1	-0.2	4.3	1.4	-31.8*	-24.9*	4.1*	-1.9%	5.5	2.8	?
Cc1ccc(C)c(CN2C(=O)CSc3ccc(C(=O)N4CCCC4)cc32)c1	-0.3	-3.9	-0.5	2.6	8.9	-0.8	/	-14.0	22.7	0.1
CC1SC(c2ccc(F)cc2)NC1=O (centres undefined)	0.2	-4.7	-2.3	0.5	-1.7	-0.5	-0.3%	-1.2	-17.7	-3.4
COc1ccccc1CN1C(=O)CCC1(C)C(=O)NCc1cccnc1 (centres undefined)	0.3	-25.8	2.2	/	/	/	22.9%	/	-3.4	7.4
CN1CCN(C(=O)c2c(O)c3cccc4c3n(c2=O)CC4)CC1	-0.1	5.2	-8.5	/	/	/	11.6%	/	3.6	-4.9
COc1ccc(S(=O)(=O)Nc2ccc3c(c2)C(=O)N([C@H](C)CO)C[C@@H](C)[C@@H](CN(C)S(=O)(=O)c2ccc(Cl)cc2)O3)cc1	-0.3	/	5.3	-9.8&-8.7	-14.8&-8.2	2.0&10.4	/	-2.2	/	/
C#CCNC(=O)C1=C[C@@H](C2CCCCC2)C[C@@H](OCc2ccc(CO)cc2)O1	-0.8	-10.0	-5.2	-21.1	-30.3	-10.5	15.1%	-2.7&5.9	10.6	8.7
Cc1sc2ncn(CC(=O)N3CCN(c4ccccc4)CC3)c(=O)c2c1S(=O)(=O)N1CCOCC1	0.1	-2.8	0.5	7.2	4.0	2.4	-2.8%	-3.3	-3.3	0.6
CC(C)CNC(=O)CC1Nc2ccccc2NC1=O (centres undefined)	-0.3	-13.5	-7.3	/	/	/	-1.7%	/	3.3	1.9
COc1ccccc1NC(=O)c1csc(-n2nc(C)cc2C(F)(F)F)n1	-1.0	10.6	-3.7	/	/	/	27.1%	/	5.4	-1.7
